AmpC nodet inh: blocks E. coli AmpC beta-lactamase in absence of detergent; AmpC nitrocefin hydrolysis, absorbance 480 nm, no detergent; potencies from a single point are estimates; P00811; hit rate 1.8% among 71,000; Potency, µM (doses to about 28.7 µM), for the others: at the highest dose activity change, negative = inhibition; active = falling curve, for most hits resting on a single point; inconclusive = weak or doubtful change; inactive = flat or rising curve; also: % of control where 0% means no effect; about half of the hits show no inhibition at the top dose; a quarter of the inactives give rising signals
Target sequence (P00811 whole entry, looked up): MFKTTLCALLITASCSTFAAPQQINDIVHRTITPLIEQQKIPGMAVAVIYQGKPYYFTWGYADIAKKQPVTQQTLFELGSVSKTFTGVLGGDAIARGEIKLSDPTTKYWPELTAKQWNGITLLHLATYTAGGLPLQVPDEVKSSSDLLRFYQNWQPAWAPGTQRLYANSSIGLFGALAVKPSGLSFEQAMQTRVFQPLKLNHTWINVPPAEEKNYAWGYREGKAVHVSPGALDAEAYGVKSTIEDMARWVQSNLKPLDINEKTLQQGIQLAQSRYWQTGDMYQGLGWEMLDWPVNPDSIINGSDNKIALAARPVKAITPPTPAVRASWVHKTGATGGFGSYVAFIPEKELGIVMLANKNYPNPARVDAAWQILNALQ
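AmpC in 20 mM phosphate buffer pH 7.0 was preincubated 15 min at room temperature with compounds. Nitrocefin (800 uM stock) was then added and hydrolysis followed at 480 nm every 20 s for 4 min.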
The depositor's hits bear a star; ? = inconclusive; [ ] = dose if it differs, or a comment. Potency is read from the fitted curve at half-maximal effect. The list is partial (hit frequency here may not be typical).

A first look (four entries):
entry | SMILES | AmpC nodet inh
1 | CCOc1ccc(CCNC(=O)CCN2C(=O)COc3ccccc32)cc1OCC | 49.6%
2 | COc1ccc(CN2CC34C=CC(O3)C(C(=O)O)C4C2=O)cc1 (stereo unspecified) | 5.1%
3 | O=C(c1ccco1)N1CCN(C(=O)N2c3ccccc3Sc3ccccc32)CC1 | 116.1%
4 | Cc1ccc(C)c(N2CCN(C(=O)c3ccccc3Br)CC2)c1 | 64.6%

This part in full, previewed entries included:
entry | SMILES | AmpC nodet inh
1 | CCOc1ccc(CCNC(=O)CCN2C(=O)COc3ccccc32)cc1OCC | 49.6%
2 | COc1ccc(CN2CC34C=CC(O3)C(C(=O)O)C4C2=O)cc1 (stereo unspecified) | 5.1%
3 | O=C(c1ccco1)N1CCN(C(=O)N2c3ccccc3Sc3ccccc32)CC1 | 116.1%
4 | Cc1ccc(C)c(N2CCN(C(=O)c3ccccc3Br)CC2)c1 | 64.6%
5 | COc1ccc(C2=NOC(C(=O)N3CCCc4ccccc43)C2)cc1 (stereo unspecified) | 23.5%
6 | COc1cccc(C=Nc2ccc3c(c2)OCCO3)c1O | 12.6%
7 | O=C1NC(=O)C(CC(=O)N(Cc2ccco2)C2(C(=O)NC3CCCC3)CCCCC2)N1 (stereo unspecified) | 16.7%
8 | COc1cc2c(C(=O)NCCCOC(C)C)cn(CC(C)C)c(=O)c2cc1OC | 46.6%
9 | COCCOC(=O)CC1=NC(=O)CS1 | 7.1%
10 | Cc1ccc(-c2c(C#N)c(N)nc3c2CCCCC3)o1 | 6.5%
11 | COC(=O)c1[nH]c2ccccc2c1NC(=O)CN1CCC(C(N)=O)(N2CCCCC2)CC1 | 4.7%
12 | COc1cccc(C2CC(c3ccccc3OC)n3nc(N)nc3N2)c1 (stereo unspecified) | 66.3%
13 | C=C/C(=C\C)C[C@@H](CC(=O)N[C@@H](CCC(=O)O)CC(=O)O)NC(=O)[C@@H]1CNCC[C@H]1NC(=O)C[C@@H](NC(=O)C[C@H](Cc1ccccc1)NC(=O)[C@@H]1CCCC[C@H]1N)C(C)C | 122.4%
14 | COC(=O)C(NS(C)(=O)=O)(c1c(C)[nH]c2ccccc12)C(F)(F)F (stereo unspecified) | 6.5%
15 | O=C(NCc1ccccc1)c1cc(-n2cnnc2)ccc1Cl | 8.8%
16 | CCn1c(Cc2c(C)[nH]c3ccccc23)nnc1SCC(N)=O | -1.7%
17 | C/C(Cl)=C/Cn1c(=O)c2c(nc(Br)n2Cc2ccccc2)n(C)c1=O | 51.9%
18 | CC(=O)Cc1nsc(NC(=O)c2ccc(-c3cc(C(F)(F)F)ccc3Cl)o2)n1 | 19.8%
19 | COc1cccc(C(CC(=O)NCc2ccco2)NS(=O)(=O)c2ccc(C)cc2)c1OC (stereo unspecified) | -1.6%
20 | Clc1ccccc1-c1nccc(-n2ccnc2)n1 | 8.3%
21 | CCCCNC(=O)Nc1cc(C(F)(F)F)c[nH]c1=O | -22.7%
22 | CC(=O)NC(c1ccccc1)c1cccnc1 (stereo unspecified) | 2.1%
23 | CCOC(=O)Nc1ccc2c(c1)N(C(=O)CN1CCN3CCCC3C1)c1ccccc1CC2 (stereo unspecified) | 31.8%
24 | O=C(C(Cc1ccccc1)n1cccc1)N1CCN(C2CCCCC2)CC1 (stereo unspecified) | 83.0%
25 | CC(C)C[C@@H](CC(=O)N[C@@H](CCC(=O)O)CC(=O)O)NC(=O)[C@@H]1CNCC[C@H]1NC(=O)C[C@H](CCCN)NC(=O)C[C@H](Cc1c[nH]c2ccccc12)NC(=O)[C@@H]1CCCC[C@H]1N | 124.0%
26 | Oc1c(Cl)cc(Cl)c(Cl)c1Cl | -16.8%
27 | COc1ccccc1-c1cc(C(F)(F)F)nc(NCc2ccco2)n1 | -10.4%
28 | COc1ccccc1OC1=NS(=O)(=O)c2ccccc21 | -3.6%
29 | COc1ccc(CNC(=O)Cn2cnc3c(=O)n(C)c(=O)n(C)c32)cc1 | 3.9%
30 | O=C(Oc1cccc(Oc2ccccc2)c1)N1CCOCC1 | 37.4%

Some of the entries above, set out differently:
#19 COc1cccc(C(CC(=O)NCc2ccco2)NS(=O)(=O)c2ccc(C)cc2)c1OC (stereo unspecified)
  AmpC nodet inh = -1.6%

#20 Clc1ccccc1-c1nccc(-n2ccnc2)n1
  AmpC nodet inh = 8.3%

#21 CCCCNC(=O)Nc1cc(C(F)(F)F)c[nH]c1=O
  AmpC nodet inh = -22.7%

#22 CC(=O)NC(c1ccccc1)c1cccnc1 (stereo unspecified)
  AmpC nodet inh = 2.1%

Next section.
entry | SMILES | AmpC nodet inh
31 | COc1ccc(-n2cnnc2SCC(=O)c2ccc(S(=O)(=O)N3CCOCC3)cc2)cc1 | 135.2%
32 | O=C(NCc1ccccc1Cl)C1CCN(S(=O)(=O)N2CCCCC2)CC1 | 10.5%
33 | COc1ccccc1N1CCN(Cc2nc3ccccc3c(=O)n2CC(C)=O)CC1 | 91.4%
34 | Cc1noc(C)c1CSc1nc2sc(C)c(C)c2c(=O)n1-c1ccccc1 | 3.8%
35 | CC(=O)Nc1ccc(-n2c(C)c(C(C)=O)c(C(C)=O)c2C)cc1 | 0.6%
36 | O=C(CP(=O)(c1ccccc1)c1ccccc1)N1CCCCC1 | 3.3%
37 | Cc1ccc(C(=O)c2coc3ccc(OCC(=O)O)cc23)cc1 | -14.5%
38 | CCC(C(=O)N1CCC2(CC1)OCCO2)c1ccccc1 (stereo unspecified) | 24.3%
39 | O=c1[nH]cnc2c1nc(SCc1ccccc1)n2C1OC(CO)C(O)C1O (stereo unspecified) | -7.1%
40 | CCOC(=O)Cn1c(=O)oc2cc(S(=O)(=O)Nc3cc(OCC)ccc3OCC)ccc21 | 51.4%
41 | CCS(=O)(=O)n1nc(C(=O)N2CCOCC2)nc1N | 0.2%
42 | COc1cc(C2NC(=O)NC(C)=C2C(=O)OCc2ccccc2)ccc1O (stereo unspecified) | -3.6%
43 | O=C(O)CSc1cccc2cccnc12 | -7.2%
44 | CCOc1cc(C(=O)Nc2c3c(nn2C(C)(C)C)CS(=O)C3)cc(OCC)c1OCC (stereo unspecified) | 92.2%
45 | CC(C)(C)OC(=O)NCCc1nnc(S(=O)(=O)Cc2ccc(Cl)cc2Cl)o1 | 0.0398µM*
46 | COCCn1c(COc2ccccc2)nnc1SCC(N)=O | 7.6%
47 | COc1cc2c(c(OC)c1)C(c1ccncc1)CC(=O)N2 (stereo unspecified) | -5.6%
48 | COc1cccc(C(=O)Nc2c(F)c(F)c(F)c(F)c2F)c1 | -11.5%
49 | CC(=O)C1=C(C)OC(N)=C(C(=O)OC(C)C)C12C(=O)Nc1ccccc12 (stereo unspecified) | 18.6%
50 | O=c1c(CCc2ccccc2)nc2cnc(N3CCOCC3)nc2n1C1CC1 | 12.8%
51 | CCOC(=O)c1cc(C(=O)OCC)c2cc(Br)ccc2n1 | 83.7%
52 | COc1cccc(-c2cc(C(F)(F)F)nc(N3CCOCC3)n2)c1 | 44.9%
53 | COC(=O)C1CCN(C(=O)COC(=O)Cn2cnnn2)CC1 | -6.1%
54 | Cc1cc2ccccc2c(=O)n1CC(=O)NCC(=O)N1CCN(c2cccc(Cl)c2)CC1 | 17.3%
55 | CCc1ccc(NC2=NC(C(=O)NC3CCCCC3)CC(=O)N2)cc1 (stereo unspecified) | 0.5%
56 | c1ccc(CNc2ccnc(-c3cccnc3)n2)cc1 | 45.9%
57 | COc1ccc(S(=O)(=O)Cc2ccc(C(=O)N3CCN(c4cccc(C)c4C)CC3)o2)cc1 | 102.8%
58 | COc1ccccc1OCCCCCNCCO | 55.0%
59 | O=C(Nc1ccc2c(c1)OCCO2)c1c(F)c(F)c(F)c(F)c1F | 1.5%
60 | Cc1c(NC(=O)Cn2nc(C(=O)O)c3ccccc3c2=O)c(=O)n(-c2ccccc2)n1C | 9.4%
61 | CS(=O)(=O)Nc1ccc(OCc2ccccc2)cc1 | 2.7%
62 | Cc1cc(C)cc(N(C(C)C(=O)Nc2c(C)n(C)n(-c3ccccc3)c2=O)S(C)(=O)=O)c1 (stereo unspecified) | 20.8%
63 | COc1cccc(C(=O)OC(C)CN2CCCC2)c1 (stereo unspecified) | 2.0%
64 | CC(C)c1nnc(NC(=O)CCC(=O)NCC2CCCO2)s1 (stereo unspecified) | 3.8%
65 | CC(c1nnc(SCn2nnc3ccccc3c2=O)n1-c1ccc(Cl)cc1)N(C)C (stereo unspecified) | 53.4%
66 | Cc1sc(NC(=O)CSc2nnnn2C2CCCC2)c(C#N)c1C | -17.4%
67 | O=C(Nc1ccon1)c1cccc(Cl)c1 | 1.6%
68 | Cn1c(N)c(C(=O)CSc2nc3ccccc3n2-c2ccccc2)c(=O)n(C)c1=O | -5.5%
69 | CSC1=C(C#N)C(CC(C)C)C(C(C)=O)=C(C)N1 (stereo unspecified) | 10.7%
70 | CCOC(=O)C1=C(N)n2c(s/c(=C\c3cccnc3)c2=O)=C(C(=O)OCC)C1c1cccnc1 (stereo unspecified) | 30.9%
71 | Cc1ccccc1NC(=O)CSc1nc(N)c(C#N)cc1C#N | -18.4%
72 | CC(C)CCNC(=O)C(c1ccco1)N(Cc1ccc(F)cc1)C(=O)c1snc(C(N)=O)c1N (stereo unspecified) | 30.5%
73 | COc1ccc(CN(Cc2nc3ccccc3c(=O)[nH]2)C(=O)C(C)(C)C)cc1 | 33.0%
74 | CC1(C)CC(NC(=O)C2CCCCC2C(=O)O)CC(C)(C)N1 (stereo unspecified) | -8.5%
75 | O=C(NC1(C(=O)O)CCCC1)c1ccccc1 | 2.1%[5.75 µM]
76 | Fc1ccccc1CSc1ncnc2c1oc1ccccc12 | -23.7%
77 | O=C(NCCCN1CCCC1=O)c1cc(=O)c2ccccc2o1 | -8.0%
78 | Cc1cc2c(N)cccc2nn1 | 3.4%
79 | COc1ccc(C(=O)N2CCc3cc(OC)c(OC)cc3C2)cc1OC | 29.2%
80 | COC(=O)c1c(N)c(C#N)c2n1CCCCC2 | -10.7%
81 | CC1(C)Cc2c(sc3ncn4nc(CCC(=O)O)c(=O)nc4c23)CO1 | 13.7%
82 | C/C(=C\C(=O)c1ccc(C)cc1)Nc1cccc(O)c1 | -6.5%
83 | CCCCCc1nc2ccccc2c(=O)n1N | 14.8%
84 | CCCS(=O)(=O)N1CCCC(C(=O)N2CCN(c3ccccn3)CC2)C1 (stereo unspecified) | 17.5%
85 | COc1ccc(-c2cc(C(=O)Nc3cccc(C(C)=O)c3)no2)cc1 | -1.0%
86 | Cc1ccc(OCCCC(=O)Nc2nncs2)cc1 | 7.3%
87 | COc1ccc2[nH]cc(C(=O)CN3CCCCC3C)c2c1 (stereo unspecified) | 5.6%
88 | COc1ccc(-c2c(C)oc3cc(O)cc(O)c3c2=O)cc1OC | -9.3%
89 | Oc1ccccc1-c1cc(-c2cccc(F)c2)n[nH]1 | -10.5%
90 | O=C(Cn1cnc2c(cnn2-c2ccc(F)cc2)c1=O)NCC1CCCO1 (stereo unspecified) | 0.8%

Continued.
entry | SMILES | AmpC nodet inh
91 | Cc1ccc(Nc2nc(N)nc(CN3CCCCCC3)n2)cc1 | -7.0%
92 | CC(C)n1c(CCC(=O)O)ccc1-c1ccccc1 | 6.4%
93 | CC(C)(C)c1ccc(O)c(C[N+](C)(C)C)c1 | -2.2%[5.75 µM]
94 | CC(C)C(C(=O)Nc1ccccc1)N1C(=O)c2ccccc2C1=O (stereo unspecified) | -15.1%
95 | Cn1c(CNc2nc3ccccc3n2C)nc2ccccc21 | -6.4%
96 | CCOCCCNCc1cccc(OC)c1 | -9.0%
97 | Cc1ccccc1OCc1nc(-c2ccc(-n3cccc3)cc2)no1 | -16.0%
98 | CCOC(=O)c1[nH]c2ccccc2c1NC(=O)c1cc(OC)c(OC)c(OC)c1 | 38.6%
99 | COc1cc(C(c2sc3ncnn3c2O)N2CCN(c3ccccc3F)CC2)cc(OC)c1OC (stereo unspecified) | -6.0%
100 | CSc1cccc(-n2cc(-c3ccc4c(c3)OCO4)[nH]c2=O)c1 | ?
101 | CCOc1ccc(-c2nc(CSCC(=O)NCCN3CCOCC3)c(C)o2)cc1 | 100.8%
102 | Cc1ccc(C(=O)N2CCCC(c3nc4c(nnn4Cc4ccccc4)c(=O)[nH]3)C2)cc1 (stereo unspecified) | 35.9%
103 | C=CCN1C(=O)CS/C1=C(\C#N)S(=O)(=O)c1ccc(C)cc1 | -24.3%
104 | CCOC(=O)c1cn(CC)c2cc(N3CCCCC3)c(F)cc2c1=O | 20.4%
105 | Cc1nc(NCCN2CCOCC2)c2nnn(Cc3c(F)cccc3Cl)c2n1 | 81.7%
106 | Cc1cc(C)nc(SCC2COc3ccccc3O2)n1 (stereo unspecified) | 44.5%
107 | Cc1cccc(N2CCN(C(=O)C34CC5CC(CC(C5)C3)C4)CC2)c1C | 22.9%
108 | CC(C)(CNCC(O)c1ccccc1)N1CCOCC1 (stereo unspecified) | 4.3%
109 | CC(=O)Nc1cccc(O)c1 | -8.3%
110 | O=C(Nc1ccc2c(c1)OCO2)C1CCN(S(=O)(=O)Cc2ccccc2)CC1 | -11.0%
111 | O=C(Nc1ccccc1C1CC1)c1cccs1 | -8.3%
112 | Cc1cc(NC(=O)CSc2nc3c(c(=O)n2-c2ccc(Br)cc2)SCC3)no1 | -10.4%
113 | COc1ccc(NC(=O)CN(c2ccc(C(C)C)cc2)S(=O)(=O)c2c(C)noc2C)cc1OC | 0.1%
114 | CCCCC(CC)CNC(=O)C1CCCN(S(=O)(=O)c2cnc[nH]2)C1 (stereo unspecified) | 24.3%
115 | O=C(CCN1C(=O)c2ccccc2C1=O)N1CCC(c2ccccc2)C1 (stereo unspecified) | 31.9%
116 | O=C(CSc1nc2cc(Cl)ccc2o1)c1cccs1 | -17.0%
117 | O=C(OCC(CO)OC(CO)n1ccc(=O)[nH]c1=O)c1ccccc1 (stereo unspecified) | 4.5%
118 | CS(=O)(=O)N(Cc1ccccc1)c1ccccc1C(=O)O | -1.7%
119 | Cc1ccc(CNC(=O)CS(=O)Cc2nc(-c3cccs3)oc2C)cc1 (stereo unspecified) | 9.0%
120 | O=C(Nc1ccc(Br)cc1F)C1CCCN(S(=O)(=O)c2cnc[nH]2)C1 (stereo unspecified) | -2.3%
121 | O=C1CCCc2nn(-c3ccccc3)c(-c3ccncc3)c21 | 2.9%

Compound activity from PubChem BioAssay.
